D2 ag: activates the human D2 dopamine receptor | P14416 | DiscoveRx PathHunter D2 beta-arrestin, luminescence, 90 min; 100% = 57 uM dopamine signal | activation, % (test concentration not listed) | actives 0.084% (n = 360,000); in the data active = activation above about 40%; inconclusive = about 15% to 40%; inactive = below about 15%; also: compound concentration not given in the record; the text of the record calls up to 30% inactive
Target sequence (P14416 whole entry, looked up): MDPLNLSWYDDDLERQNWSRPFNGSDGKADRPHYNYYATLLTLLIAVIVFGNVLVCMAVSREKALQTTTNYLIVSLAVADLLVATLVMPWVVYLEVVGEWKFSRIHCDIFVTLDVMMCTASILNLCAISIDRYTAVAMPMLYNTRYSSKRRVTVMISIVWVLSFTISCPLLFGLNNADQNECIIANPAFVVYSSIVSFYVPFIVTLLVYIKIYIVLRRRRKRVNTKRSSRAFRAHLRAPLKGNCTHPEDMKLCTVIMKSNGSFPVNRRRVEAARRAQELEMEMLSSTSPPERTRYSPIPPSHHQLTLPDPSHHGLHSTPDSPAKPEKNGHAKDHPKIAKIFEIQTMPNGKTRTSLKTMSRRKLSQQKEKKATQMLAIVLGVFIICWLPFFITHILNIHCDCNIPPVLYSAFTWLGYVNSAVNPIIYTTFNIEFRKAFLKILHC
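Agonist mode: compounds alone added to overnight-plated D2 PathHunter cells for 90 min at 37 C, with 57 uM final dopamine (EC100) defining full response. Beta-arrestin recruitment detected by chemiluminescent reagent, read after 1 h at ambient temperature.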
TRPML1 blocker: blocks the human TRPML1 channel; Q9GZU1; TRPML1-inducible cells, Ca2+ dye fluorescence, FDSS; stronger effect = lower value; inhibition of EC80 agonist-evoked calcium signal; activity change, negative = inhibition, % (concentration not given with the values); actives 0.02% (n = 390,000); in the data active means activity change below about -50%; inconclusive means about -30% to -50%; inactive means above about -30%;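 also: stimulus is agonist 54-4 at its EC80 concentration; % is scaled to controls: 0 for no effect and ±100 for the full control effect; compound concentration not given in the record; the text of the record puts the active cut at -80%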
Target sequence (Q9GZU1 whole entry, looked up): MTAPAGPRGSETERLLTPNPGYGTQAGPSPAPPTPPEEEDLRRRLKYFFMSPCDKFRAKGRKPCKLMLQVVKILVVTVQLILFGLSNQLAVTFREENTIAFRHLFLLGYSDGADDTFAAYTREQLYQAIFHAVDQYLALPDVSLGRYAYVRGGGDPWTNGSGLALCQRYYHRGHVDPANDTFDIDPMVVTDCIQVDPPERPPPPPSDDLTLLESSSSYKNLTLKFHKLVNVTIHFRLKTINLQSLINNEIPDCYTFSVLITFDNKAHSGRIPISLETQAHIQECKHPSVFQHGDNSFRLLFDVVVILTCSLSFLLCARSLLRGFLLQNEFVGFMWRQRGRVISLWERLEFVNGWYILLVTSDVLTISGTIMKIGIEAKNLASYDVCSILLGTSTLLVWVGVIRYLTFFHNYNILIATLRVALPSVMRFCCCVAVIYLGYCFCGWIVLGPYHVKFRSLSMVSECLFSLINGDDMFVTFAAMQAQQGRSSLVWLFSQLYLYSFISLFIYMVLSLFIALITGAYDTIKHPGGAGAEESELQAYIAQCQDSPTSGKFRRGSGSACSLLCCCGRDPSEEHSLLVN
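Tet-induced TRPML1-DL cells loaded with Ca8 no-wash calcium dye were read kinetically on FDSS. Compound addition was followed by EC80 agonist 54-4 (4 uM final); inhibition was read over 110 s.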
Six1-Eya2 inh: Six1/Eya2 interaction inhibition | AlphaScreen GST-Six1/His-Eya2 binding, biochemical; stronger effect = lower value; control for the full effect not named in the record | activity change, % (test concentration not listed) | actives 0.56% (n = 360,000); in the data active = activity change below about -65%; inconclusive = about -30% to -65%; inactive = above about -30%; also: % is scaled to controls: 0 for no effect and ±100 for the full control effect; compound concentration not given in the record
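Compounds are tested against tagged Six1 and Eya2 proteins bridged by glutathione donor and nickel acceptor beads; after a one-hour incubation at 37 °C without light, AlphaScreen emission is recorded.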
PINK1 expr mod: PINK1 expression modulation; actives 0.2% (n = 410,000); AID 624263; Potency, µM (series often up to 76.6 µM), for the others: at the highest dose activation (PINK1 increase), hits mostly activators; PINK1 immunofluorescence, high-content cytometry, 24 h; active = well fitted activation curve with a large enough effect; inconclusive = small, poorly fitted or top-dose-only effect; inactive = flat fitted curve, though single readings scatter; cell line not stated here;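 also: potency is read from the fitted curve at half-maximal effect; % of control where 0% means no effect; nearly all actives have a fitted effect of over 65% in size; a mitochondrial uncoupler was the plate control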
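Decision-based qHTS: stable cells, 24 h exposure to five compound concentrations, CCCP as control. Fixed cells stained for PINK1 plus nuclear, mitochondrial and cell markers, cytometer read.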
TRPML1 agonist: human mucolipin-1 channel agonism | TRPML1-expressing cells, Ca2+ dye fluorescence, FDSS; host cell line not named in the record; reference of the full effect not given here | activation, % (no concentration beside the values) | actives 0.12% (n = 410,000); in the data active = activation above about 50%; inconclusive = about 30% to 50%; inactive = below about 30%; also: 0% is about no effect; the text of the record puts the active cut at 80%
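Tet-induced TRPML1-DL cells, 1,500 per well, cultured overnight, were loaded with a no-wash Ca2+ dye for 45–90 min. Calcium fluorescence was recorded on the FDSS for 110 s after compound addition, before the EC80 agonist (4 uM 54-4) was added.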
CtBP-E1A inh: blocks the CtBP interaction with E1A. actives 0.49% (n = 340,000). activity change, % (test concentration not listed). AID 651724. AlphaScreen GST-E1A/His-CtBP binding, 1536-well; stronger effect = lower value; control for the full effect not named in the record; in the data active means activity change below about -65%; inconclusive means about -30% to -65%; inactive means above about -30%; also: % is scaled to controls: 0 for no effect and ±100 for the full control effect; compound concentration not given in the record
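AlphaScreen with 125 nM GST-E1A and 125 nM His-CtBP (5X stocks) in Tris pH 8.0, 300 mM NaCl, BSA, Tween 20, TCEP. Compounds preincubated 2 h at 37 deg C, then glutathione donor/nickel acceptor beads added for 1 h at 37 deg C in dark.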
Active calls of the source: *; ? = inconclusive; . = not tested or not shown; [ ] = another dose, or the depositor's remark. Hits appear at their usual frequency (roughly 1% active in at least one column).

SMILES	D2 ag	TRPML1 blocker	Six1-Eya2 inh	PINK1 expr mod	TRPML1 agonist	CtBP-E1A inh
CCCCc1cc(=O)oc2c(CN3CCCC3)c(O)c(Cl)cc12	1.1	6	7	2.8%[38.3 µM]	-0.7	6
COc1ccccc1-n1nnnc1SCc1cc2c(cc1Br)OCO2	-1.7	27	10	1.3%	1.3	2
CCCCn1c(=O)c(-[n+]2ccccc2)c([O-])c2ccccc21	-2.2	2	-2	2.0%	-0.3	-1
CC12CCC(=O)N1C(C(=O)N1CCN(S(=O)(=O)c3ccc(Br)cc3Cl)CC1)CS2 (stereo unspecified)	-1.7	3	-3	3.1%	1.8	-14
O=C(O)CCc1ccc(-c2ccccc2)n1CC(=O)Nc1ccccc1C(F)(F)F	.	24	.	0.8%	1.5	.
CCn1cc(CCCC(=O)NCc2ccccc2OC)c2ccccc21	-4.1	-3	-15	2.6%	0.7	-18
COc1ccc(CCNS(=O)(=O)c2ccc(OC)cc2)cc1	-0.8	5	4	3.1%	-0.4	2
COc1cccc(CN2CC(C(=O)N(C)C3CCOCC3)CCC2=O)c1 (stereo unspecified)	-1.5	2	4	-0.1%	-0.7	8
CC(C)CNC(=O)C1(C)CCCN1Cc1ccccc1OC(F)F (stereo unspecified)	-4.9	.	0	0.9%	-0.5	2
CN(C)S(=O)(=O)c1ccc(Cl)c(NC(=O)CN2CCc3ccccc3C2)c1	64*	0	-13	1.1%	0.1	2
CC1(Oc2ccc3ccccc3c2)CCN(Cc2ccc(OC(F)(F)F)cc2)C1 (stereo unspecified)	10	.	6	?	0.1	13
CCCNC(=O)C1(C)CCN(C(=O)c2ccc3snnc3c2)C1 (stereo unspecified)	-5.0	.	4	0.6%	0.0	3
CCOC(=O)c1nc(C)nc(Sc2n[nH]c(-c3ccc(C(C)(C)C)cc3)n2)c1C	-2.8	-8	-5	0.7%	3.0	-22
COc1ccc(S(=O)(=O)N2c3cc(C)ccc3OCC2C(C)(C)C)cc1 (stereo unspecified)	-1.6	77	7	6.1%	2.0	2
O=C1c2ccccc2C(=O)N1c1ncc(Cc2ccc(Cl)cc2)s1	-1.5	-24	3	6.1%	0.1	2

Record cards, as listed above. Values in the order: D2 ag	TRPML1 blocker	Six1-Eya2 inh	PINK1 expr mod	TRPML1 agonist	CtBP-E1A inh
`CC12CCC(=O)N1C(C(=O)N1CCN(S(=O)(=O)c3ccc(Br)cc3Cl)CC1)CS2` (stereo unspecified) is listed with -1.7	3	-3	3.1%	1.8	-14
`CC(C)CNC(=O)C1(C)CCCN1Cc1ccccc1OC(F)F` (stereo unspecified) is listed with -4.9	.	0	0.9%	-0.5	2
`O=C1c2ccccc2C(=O)N1c1ncc(Cc2ccc(Cl)cc2)s1` is listed with -1.5	-24	3	6.1%	0.1	2
`COc1ccc(CCNS(=O)(=O)c2ccc(OC)cc2)cc1` is listed with -0.8	5	4	3.1%	-0.4	2
`CCCCc1cc(=O)oc2c(CN3CCCC3)c(O)c(Cl)cc12` is listed with 1.1	6	7	2.8%[38.3 µM]	-0.7	6

(continued)
SMILES	D2 ag	TRPML1 blocker	Six1-Eya2 inh	PINK1 expr mod	TRPML1 agonist	CtBP-E1A inh
O=C(COc1ccccc1)N1CCc2ccccc21	1.7	7	27	-1.8%	1.4	58
Cc1cc(C)nc(Nc2n[nH]c(COc3ccccc3)n2)n1	1.9	18	-4	1.5%	0.5	5
O=C(Cc1ccccc1)N/N=C/c1ccccc1OCc1ccc(Cl)cc1	-0.8	-10	-2	1.0%	0.3	5
O=C(c1ccc(COCC(F)(F)F)o1)N1CCCCCC1	0.5	29	4	-1.1%	-0.6	-1
CCCCCOP(=O)(c1ccccc1)c1ccccc1	-2.9	-2	7	0.4%	-0.4	-6
CCOc1ccc2c(C)c(C(=O)O)oc2c1OCC	-1.8	20	-8	0.1%	1.9	-7
CCOC(=O)N1CCN(C(=O)c2ccc(Cl)c(NC(=O)c3cccs3)c2)CC1	5.2	-11	-1	0.0%	1.0	0
COc1ccc(CN(C(=O)c2cc3ccccc3oc2=O)C2CCCC2)cc1	1.5	-2	2	0.2%	0.7	2
Cc1ccc2nc(-c3ccccc3)c(Cc3ccsc3)n2c1	.	.	-12	0.0%	0.2	-27
CCOc1ccc(NC(=O)C(CC)NC(=O)c2ccccc2CO)cc1 (stereo unspecified)	0.9	4	8	-2.1%	-0.7	0
O=C(COc1coc(CN2CCN(c3ccc(F)cc3)CC2)cc1=O)NC1CCCC1	-1.8	-2	0	1.9%	-0.4	12
CC(C)Cc1nnc(NS(=O)(=O)c2ccccc2)s1	-0.7	42	9	-0.7%	0.2	-2
COc1cccc(CNC(=O)CCc2c(C)c3cc4c(C)coc4c(C)c3oc2=O)c1	.	-13	.	7.4%	3.1	.
Cn1c(CSCc2ccccc2)n[nH]c1=S	-3.2	-14	3	-0.8%	-0.2	6
COc1cccc(N2CCN(C(=O)C3CCN(S(=O)(=O)c4ccc5c(c4)CC(C)N5C(C)=O)CC3)CC2)c1 (stereo unspecified)	9.0	1	0	-0.6%	1.1	.

3 compounds from above, arranged by the number in PINK1 expr mod, descending.
molecule | D2 ag | TRPML1 blocker | Six1-Eya2 inh | PINK1 expr mod | CtBP-E1A inh
O=C(COc1coc(CN2CCN(c3ccc(F)cc3)CC2)cc1=O)NC1CCCC1 | -1.8 | -2 | 0 | 1.9% | 12
COc1ccccc1-n1nnnc1SCc1cc2c(cc1Br)OCO2 | -1.7 | 27 | 10 | 1.3% | 2
CCCNC(=O)C1(C)CCN(C(=O)c2ccc3snnc3c2)C1 (stereo unspecified) | -5.0 | . | 4 | 0.6% | 3

(more compounds)
SMILES	D2 ag	TRPML1 blocker	Six1-Eya2 inh	PINK1 expr mod	TRPML1 agonist	CtBP-E1A inh
COc1ccc(CCNC(=O)c2cccc(NS(=O)(=O)c3ccccc3F)c2)cc1OC	-4.4	1	-1	2.2%	0.7	-5
S=C(Nc1ccc(Cl)cc1)c1sc(N2CCCCC2)nc1N1CCOCC1	-3.2	-8	-4	4.2%	-0.5	1
C=C[C@H]1[C@H](OC2OC(CO)C(O)C(O)C2O)OC=C(C(=O)OC)[C@H]1C[C@H]1CC(=O)C[C@H](CC(=O)CCc2ccc(O)cc2)O1 (stereo partly specified)	-2.1	.	1	-0.8%	.	5
O=C(Nc1cc(Cl)c(O)c(Cl)c1)C1CCCO1 (stereo unspecified)	-1.4	12	-1	0.7%[38.3 µM]	0.5	-6
O=C(NCCc1c[nH]c2ccccc12)C(=O)Nc1cc2c3c(c1)CC(=O)N3CCC2	3.0	14	-13	7.6%	0.2	3
Cc1cc(NC(=O)CSc2nnc(C3COc4ccccc4O3)n2C)no1 (stereo unspecified)	1.0	-8	-8	1.5%	0.8	-4
Nc1ccccc1S(=O)(=O)NCCCCc1ccccc1	-2.1	1	1	3.0%	-0.1	.
O=C(C1=C[C@H](C2CCCCC2)C[C@H](OCCCCO)O1)N1CCOCC1	1.3	14	2	0.1%	-0.4	-1
COc1ccc(S(=O)(=O)N2CCN(C/C=C/c3ccccc3)CC2)cc1NC(C)=O	-11	-21	-8	0.5%	0.7	-22
CCOC(=O)CCNC(=O)Nc1ccc2nc(C)n(Cc3cccc(Cl)c3)c(=O)c2c1	0.4	0	-11	.	-0.4	5
COc1ccc(Cl)cc1NC(=O)CN(C)C(=O)CCCNC(=O)c1ccc(Cl)cc1	-2.9	-3	4	0.1%	-0.3	.
Cc1ccc(N2C(=O)c3oc4ccccc4c(=O)c3C2c2cccc(O)c2)nc1 (stereo unspecified)	-1.0	53	-19	0.7%	1.4	-25
CCOC(=O)c1c(C)oc2c1C(=O)c1ccccc1C2=O	0.3	18	-2	1.3%	0.9	-14
O=C(O)CCN1C(=O)/C(=C\c2ccc(OCc3ccccc3)c(OCc3ccccc3)c2)SC1=S	-2.7	-8	0	14%	0.3	-12
CCc1nnc(NC(=O)c2cccs2)s1	-1.8	-6	2	-0.3%	0.0	7
COc1ccc(C(=O)N2CCCC2)cc1S(=O)(=O)N1CCOCC1	-1.6	9	0	-3.6%[38.3 µM]	-0.3	-8
NS(=O)(=O)c1ccc(NC(=O)c2ccc(OCC3CCCO3)cc2)cc1 (stereo unspecified)	-2.3	-3	1	10%	-0.5	9
CCOC(=O)n1c(=O)n(Cc2ccc(OC)cc2)c2ccccc21	1.8	2	-8	10.0%	-1.3	7
COc1ccc2cc(-c3csc(-c4cccnc4)n3)ccc2c1	1.1	-7	6	-0.7%	1.5	9
CC1(C(=O)Nc2cccc3c2CCCC3)CCN1C(=O)C1(c2ccc(Cl)cc2)CC1 (stereo unspecified)	-2.3	.	3	-0.3%	0.2	2
COc1ccc(Nc2nc(N3CCCC3)nc(N3CCCC3)n2)c(OC)c1	-2.8	0	-8	2.7%[38.3 µM]	0.1	-6
Cc1cccc(NS(=O)(=O)c2ccc(C(=O)N3CCCC3)cc2)c1C	-6.5	3	3	4.9%	1.4	-7
Cc1cc(C)cc(N(CC(=O)NCc2ccco2)C(=O)c2snc(C(N)=O)c2N)c1	-1.2	-14	-11	.	0.1	-14
Cc1c(Cl)cnc(NC(=O)COC(=O)c2cccc(S(=O)(=O)N3c4ccccc4CC3C)c2)c1Cl (stereo unspecified)	3.1	-15	-1	2.1%	2.3	4
CC(Sc1nnc(-c2ccncc2)n1C)C(=O)NCC1CCCO1 (stereo unspecified)	-0.6	-16	-2	-3.1%	2.0	-12
COCCN1CCc2nc(SCC(=O)Nc3ccc(Br)cc3)[nH]c(=O)c2C1	.	-2	.	-1.0%	-0.3	.
COc1cccc(-c2cnc3c(NC=O)cc(-c4ccccc4)cn23)c1	4.1	.	-12	0.9%	-1.2	-9
COc1ccc(-c2cc3nc(C)cc(N4CCN(C(=O)c5cccnc5)CC4)n3n2)cc1	-1.4	-2	-3	2.3%	-0.5	0
Cc1ccc(-c2cc(C(=O)NCC3CCCO3)no2)cc1 (stereo unspecified)	-1.8	9	-8	23%[38.3 µM]	-0.6	-23
Cc1noc(/C=C/NCc2cccnc2)c1S(=O)(=O)N(C)CC(=O)N1CCc2ccccc21	-2.9	5	2	0.4%	0.3	-1
C=CCn1c(SCC(=O)Nc2cccc(C(=O)OC)c2)nnc1C(C)NC(=O)c1cccs1 (stereo unspecified)	0.6	8	0	28%[38.3 µM]	1.5	-25
COCCNc1nc(NCc2ccc(C)cc2C)c2sccc2n1	-3.2	.	-12	6.5%	-0.7	-5
COc1ccccc1NC(=O)C1CCCN1C(=O)Nc1ccc(F)cc1 (stereo unspecified)	-1.3	32	-3	-0.4%	1.0	-2
NC(=S)NN=C1C=CCCC1	4.3	0	-5	0.6%	0.7	-1
O=C(/C=C/c1cccs1)c1ccc([N+](=O)[O-])cc1	0.8	14	-6	3.9%	-1.0	10
CC1Cc2ccccc2N1S(=O)(=O)c1cnc[nH]1 (stereo unspecified)	-1.4	1	-1	0.3%	0.6	0
Cc1cc(C)c(NC(=O)CSc2nc(=O)n(Cc3cccnc3)c3c2CCC3)c(C)c1	.	28	.	-0.1%	0.8	.
CNc1cncc(-c2cc(C)c(O)c(C)c2)n1	14	.	-13	-0.6%	-1.0	-23
CN(C)CCN(C(=O)c1ccc(S(=O)(=O)N(C)CC2CCCO2)cc1)c1nc2cc3c(cc2s1)OCO3 (stereo unspecified)	-2.9	17	-24	-0.8%	0.3	0
CCOc1ccc(-n2nc3ccc(NC(=O)c4ccc5c(c4)OCCO5)cc3n2)cc1	-2.1	-3	0	.	0.1	-10
